# Screens: PubChem BioAssay, Broad Institute
# AF4-AF9 inh: inhibitors of AF4 peptide binding to AF9, primary screen, biochemical, AlphaScreen, biotin-AF4 peptide, FLAG-AF9, single point | Protein AF-9 (Homo sapiens), P42568 | inhibition, % at 10 µM | 350,000 compounds, 0.47% hits;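 active means every replicate reaching a set inhibition limit, whatever the replicate mean, cut at about 25% in these data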;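 further: 0% = plate neutral control median and 100% = total signal loss; the record names both 10 and 1 µM as test concentration; the first replicate is given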
# Target sequence (P42568 whole entry, looked up): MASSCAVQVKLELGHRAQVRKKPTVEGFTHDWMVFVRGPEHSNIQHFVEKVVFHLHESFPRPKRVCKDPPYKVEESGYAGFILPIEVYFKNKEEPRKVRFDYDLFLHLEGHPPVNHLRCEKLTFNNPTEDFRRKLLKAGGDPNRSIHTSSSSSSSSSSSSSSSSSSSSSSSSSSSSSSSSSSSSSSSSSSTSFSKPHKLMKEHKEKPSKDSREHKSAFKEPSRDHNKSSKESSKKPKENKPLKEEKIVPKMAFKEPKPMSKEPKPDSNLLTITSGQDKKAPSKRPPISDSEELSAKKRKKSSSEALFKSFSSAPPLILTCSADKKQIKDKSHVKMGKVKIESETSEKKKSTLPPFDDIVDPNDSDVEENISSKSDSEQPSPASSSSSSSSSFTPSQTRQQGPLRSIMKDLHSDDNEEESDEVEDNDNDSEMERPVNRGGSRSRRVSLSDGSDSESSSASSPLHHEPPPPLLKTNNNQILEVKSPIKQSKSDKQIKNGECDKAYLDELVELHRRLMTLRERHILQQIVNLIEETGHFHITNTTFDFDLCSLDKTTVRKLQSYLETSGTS
# Ecoli rRNA inh: reduced GFP signal of wild-type E. coli, primary screen, bacterial rRNA inhibitor project, GFP/RFP fluorescence, OD600, single point. E. coli WT GFP vs humanized-ribosome RFP mutants, 24 h; hits give low values; DMSO median 0, no signal -100. GFP signal change (wild-type ribosome), % (no concentration beside the values). 350,000 compounds, 1.6% hits. AID 720706, 2013;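 active means significant combined selectivity score with lowered wild-type GFP, culture density cut under 30%, mutant RFP and density less affected; inactive means any of these conditions unmet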; further: one replicate is shown; some compounds called inactive have numbers as strong as hits
# Ecoli rRNA inh OD600: also measured in Ecoli rRNA inh; calls as there; OD600 change, %; measured here: OD600 growth;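 optical density of the mix in the first replicate; 0 = DMSO median and -100 = no signal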
# Ecoli rRNA inh RFP: also measured in Ecoli rRNA inh; calls as there; RFP signal change, %; measured here: RFP humanized mutant strains;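 first replicate; 0 = DMSO median and -100 = no signal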
# Starred values were filed as active, the others as inactive. These rows are one share of the data; the hit share may differ from the screen's.
nr	mol	AF4-AF9 inh	Ecoli rRNA inh	Ecoli rRNA inh OD600	Ecoli rRNA inh RFP
1	C[C@@H]1CN([C@@H](C)CO)C(=O)c2cc(NC(=O)Cc3ccccc3)ccc2O[C@@H]1CN(C)Cc1ccc(Cl)c(Cl)c1	-1.9	-6.2	-31.2	6.7
2	C[C@@H]1CCCCO[C@H](CN(C)Cc2ccc(C(F)(F)F)cc2)[C@@H](C)CN([C@H](C)CO)C(=O)c2cc(NS(=O)(=O)c3cccs3)ccc2O1	0.1	-2.5	-9.3	4.8
3	COCC(=O)N(C)C[C@@H]1Oc2cc(-c3cccnc3)ccc2S(=O)(=O)N([C@H](C)CO)C[C@@H]1C	0.8	3.5	-0.9	-2.1
4	CCC(=O)N1CC(=O)N2[C@@H](CO)[C@H](c3ccc(C#CC4CCCCC4)cc3)[C@@H]2C1	1.8	5.3	3.6	3.5
5	COc1ccc(CN(C)C[C@H]2Oc3c(NC(=O)NC4CCCCC4)cccc3C(=O)N([C@@H](C)CO)C[C@@H]2C)cc1	3.5	-8.2	-26.9	-0.9
6	O=C(C[C@@H]1CC[C@H](NS(=O)(=O)c2ccccc2)[C@@H](CO)O1)NCc1ccccc1F	-1.3	2.3	1.2	0.7
7	O=C(C[C@H]1CC[C@H](NC(=O)C2CC2)[C@@H](CO)O1)NC1CCC1	-0.4	1.1	1.6	-0.4
8	C/C=C/c1ccc([C@@H]2[C@H](CO)N3C(=O)CN(C(=O)Nc4ccc(OC)cc4)C[C@@H]23)cc1	1.3	-1.5	15.9	1.5
9	O=C(NCCN1CCC(n2c(=O)[nH]c3ccccc32)CC1)c1ccc(F)c(C(F)(F)F)c1	-2.4	-22.6	-34.0	-0.2
10	O=C1CN(S(=O)(=O)c2ccccc2)C[C@H]2[C@@H](c3ccc(C4=CCCC4)cc3)[C@H](CO)N12	-1.0	0.3	1.1	2.0
11	C[C@@H]1CN([C@H](C)CO)S(=O)(=O)c2ccc(-c3ccncc3)cc2O[C@H]1CN(C)Cc1ccccc1	9.7	-29.2	-51.7	-0.3
12	N#C[C@@H]1N[C@@H](CO)[C@@H]1c1ccc(C#CC2CCCCC2)cc1	-0.3	2.6	-0.6	6.2
13	COc1cccc(NC(=O)N2CC(=O)N3[C@H](C2)[C@H](c2ccc(C#CCC4CCCC4)cc2)[C@@H]3CO)c1	0.6	1.2	5.3	0.5
14	CO[C@H]1CN(C)C(=O)c2cc(NC(=O)C3CC3)ccc2OC[C@H](C)N(C(=O)c2cccnc2)C[C@H]1C	5.8	-0.2	-3.7	-1.3
15	C[C@@H]1CN([C@@H](C)CO)C(=O)c2ccccc2-c2ccccc2CO[C@@H]1CN(C)Cc1ccc(O)cc1	-1.5	-3.5	-15.7	-4.7
16	C[C@@H]1CCCCO[C@H](CN(C)C(=O)c2ccccc2)[C@@H](C)CN([C@@H](C)CO)C(=O)c2cc(NC(=O)Nc3ccccc3)ccc2O1	0.3	-9.5	-3.7	3.4
17	C[C@@H]1CN([C@@H](C)CO)C(=O)c2cccc(NS(=O)(=O)c3ccccc3)c2O[C@H]1CN(C)C(=O)Nc1ccc2c(c1)OCO2	-3.4	-1.7	1.5	-2.6
18	CCCNC(=O)N1C[C@H](O)COC[C@@H]2O[C@H](CC(=O)N[C@@H]3CCN(Cc4ccccc4)C3)CC[C@H]21	-2.0	-2.4	-9.4	-1.8
19	COCC(=O)N1C[C@H]2[C@@H](c3ccccc31)[C@H](CO)N2Cc1cc(F)ccc1F	-0.5	1.4	18.5	0.5
20	COc1ccc(CN(C)C[C@H]2Oc3ccc(NC(=O)Nc4ccc(C(F)(F)F)cc4)cc3C(=O)N([C@H](C)CO)C[C@H]2C)cc1	-0.2	-53.6	-72.0	-11.0
21	CCCN(C)C[C@@H]1Oc2cc(C#Cc3ccccn3)ccc2S(=O)(=O)N([C@@H](C)CO)C[C@@H]1C	0.5	5.9	6.4	0.7
22	O=C(C[C@H]1C[C@H]2c3cc(NC(=O)c4cccnc4)ccc3O[C@H]2[C@H](CO)O1)NCc1ccncc1	-2.1	1.9	3.4	-2.6
23	Cc1nc(-c2ccc(F)cc2)c(CC(=O)N(C)CC(=O)Nc2cccc(F)c2)s1	4.1	-2.5	6.2	-2.0
24	C[C@@H]1CCCCO[C@H](CN(C)C(=O)Nc2ccc3c(c2)OCO3)[C@@H](C)CN([C@H](C)CO)C(=O)c2cc(NC(=O)c3ccncc3)ccc2O1	-2.9	5.5	5.4	-1.4
25	COCC#Cc1ccc2c(c1)O[C@@H](CN(C)C(=O)Nc1ccccc1F)[C@@H](C)CN([C@H](C)CO)S2(=O)=O	-2.7	-2.9	-7.7	0.1

# The final 5 compounds of the part before lead into the next:
nr	mol	AF4-AF9 inh	Ecoli rRNA inh	Ecoli rRNA inh OD600	Ecoli rRNA inh RFP
21	CCCN(C)C[C@@H]1Oc2cc(C#Cc3ccccn3)ccc2S(=O)(=O)N([C@@H](C)CO)C[C@@H]1C	0.5	5.9	6.4	0.7
22	O=C(C[C@H]1C[C@H]2c3cc(NC(=O)c4cccnc4)ccc3O[C@H]2[C@H](CO)O1)NCc1ccncc1	-2.1	1.9	3.4	-2.6
23	Cc1nc(-c2ccc(F)cc2)c(CC(=O)N(C)CC(=O)Nc2cccc(F)c2)s1	4.1	-2.5	6.2	-2.0
24	C[C@@H]1CCCCO[C@H](CN(C)C(=O)Nc2ccc3c(c2)OCO3)[C@@H](C)CN([C@H](C)CO)C(=O)c2cc(NC(=O)c3ccncc3)ccc2O1	-2.9	5.5	5.4	-1.4
25	COCC#Cc1ccc2c(c1)O[C@@H](CN(C)C(=O)Nc1ccccc1F)[C@@H](C)CN([C@H](C)CO)S2(=O)=O	-2.7	-2.9	-7.7	0.1
26	Cc1ccc(-c2ccc([C@@H]3[C@H](CO)N4CCCCN(C)C[C@@H]34)cc2)cc1	10.9	1.5	9.4	-2.3
27	C[C@@H]1CN([C@H](C)CO)C(=O)Cc2cc(NC(=O)Nc3cccc4ccccc34)ccc2O[C@H]1CN(C)Cc1ccc2c(c1)OCO2	-1.0	-5.9	-12.6	5.5
28	CCC(=O)Nc1ccc2c(c1)C(=O)N(C)C[C@H](OC)[C@H](C)CN(Cc1ccccc1F)[C@@H](C)CO2	3.1	-3.8	-3.1	-0.1
29	CCCC(O)C#Cc1cnc2c(c1)C(=O)N([C@H](C)CO)C[C@H](C)[C@H](CN(C)C(=O)Nc1c(C)noc1C)O2 (some centres not stated)	5.3	5.3	16.9	-5.2
30	COc1ccc(CNC(=O)C[C@@H]2C=C[C@@H](NS(=O)(=O)c3cccc(OC)c3)[C@H](CO)O2)cc1	-1.6	-1.8	-2.9	1.0
31	CCC(=O)N(C)C[C@@H]1Oc2cc(/C=C/c3ccccc3)ccc2S(=O)(=O)N([C@@H](C)CO)C[C@H]1C	15.6	-22.7	-40.4	-6.4
32	COCC#Cc1ccc([C@@H]2[C@@H](CO)N3C(=O)CN(C(=O)C4CCCCC4)C[C@H]23)cc1	0.1	1.3	6.5	-2.9
33	COC(=O)[C@@]1(Sc2ccc(C)cc2)CC(=O)N(C(=O)c2ccccc2)[C@@H]1c1ccccc1	-5.3	18.5	8.8	13.6
34	O=C(C[C@@H]1C=C[C@H](NS(=O)(=O)c2ccc(F)cc2)[C@@H](CO)O1)NCCc1ccncc1	-0.4	0.8	4.9	-0.5
35	Cc1nc2ccccn2c(=O)c1NC(=O)c1ccco1	-6.4	3.5	3.0	1.0
36	O=C(NCC[C@H]1CC[C@@H](NS(=O)(=O)c2ccc(F)cc2)[C@H](CO)O1)Nc1ccc(Cl)cc1	6.2	-15.4	-32.4	10.3
37	CN1C(=O)c2cc(NS(=O)(=O)c3ccccc3F)ccc2OC[C@H]2O[C@@H](CC(=O)NC3Cc4ccccc4C3)CC[C@H]21	1.7	-7.8	-28.5	-3.2
38	Cc1ccc(S(=O)(=O)Nc2ccc3c(c2)C(=O)N([C@H](C)CO)C[C@H](C)[C@H](CN(C)Cc2ccc(Cl)c(Cl)c2)OCCCC[C@H](C)O3)cc1	1.1	0.8	-4.4	2.7
39	COc1cccc(-c2ccc3c(c2)O[C@@H](CN(C)C)[C@H](C)CN([C@H](C)CO)S3(=O)=O)c1	2.9	2.3	-4.6	-0.1
40	CC1(C(=O)NS(=O)(=O)c2ccc(C#N)cc2)CCN1C(=O)Cc1ccsc1 (configuration not stated)	1.0	16.4	18.9	1.2
41	CCCNC(=O)N(C)C[C@@H]1Oc2ncc(-c3cccc(C#N)c3)cc2C(=O)N([C@@H](C)CO)C[C@@H]1C	-3.9	5.6	14.1	-4.2
42	CCc1nc2ccc(C(=O)NCc3ccc4c(c3)OCO4)cn2c1N(C)Cc1cccs1	0.2	-20.1	-28.9	10.3
43	O=C(c1ccccc1F)N1CC[C@@H]2[C@@H](CO)Nc3ccc(C#Cc4ccccc4F)cc3[C@@H]21	0.2	2.2	-5.1	-0.3
44	CN(C)S(=O)(=O)c1cccc(NC(=O)COc2ccccc2C(=O)NCc2ccccc2)c1	-0.2	-33.9*	-26.1*	-3.5*
45	COc1ccc(-c2ccc([C@@H]3[C@@H](C#N)N(C(=O)NC4CCCC4)[C@H]3CO)cc2)cc1	-6.8	-4.4	8.9	0.1
46	CN1C(=O)c2cc(NC(=O)C3CCOCC3)ccc2OC[C@@H]2O[C@H](CC(=O)NCC3CC3)CC[C@@H]21	-1.4	5.5	6.7	-0.2
47	Cc1ccc(S(=O)(=O)Nc2ccc3c(c2)C(=O)N([C@@H](C)CO)C[C@H](C)[C@@H](CN(C)C(=O)NC2CCCCC2)OCCCC[C@H](C)O3)cc1	0.6	2.2	-2.7	9.6
48	O=C(Cc1cccnc1)N1CC[C@@H]2[C@@H](CO)Nc3ccc(C#Cc4ccccc4F)cc3[C@@H]21	8.1	3.3	-7.5	6.4
49	C[C@H](CO)N1C[C@H](C)[C@H](CN(C)S(=O)(=O)c2cn(C)cn2)Oc2ccc(NC(=O)c3ccncc3)cc2CC1=O	-0.8	3.8	7.6	-0.6
50	CCNC(=O)C1(C)CCN(C(=O)c2cccnc2SC)C1 (configuration not stated)	0.6	15.2	28.7	-0.6
51	C=CCn1c(COc2cccc(C)c2)nnc1SCC(=O)c1c(N)n(C)c(=O)n(C)c1=O	0.1	8.2	4.2	-4.3
52	CCCN1[C@@H]2c3ccc(-c4ccccc4F)c(=O)n3C[C@@H]2[C@@H](CO)[C@@H]1C(=O)N1CCCCC1	0.7	-0.8	-5.0	4.1
53	C[C@H](CO)N1C[C@H](C)[C@@H](CN(C)S(C)(=O)=O)Oc2ncc(C#CC3(O)CCCC3)cc2C1=O	2.4	1.3	-3.1	-0.6
54	CC(C)c1cccc(-c2csc(C(O)c3ccc(F)cc3)n2)c1 (configuration not stated)	2.4	-52.4	-77.2	-18.0
55	C[C@@H]1CN([C@@H](C)CO)S(=O)(=O)c2ccc(C#Cc3ccncc3)cc2O[C@H]1CN(C)C(=O)c1ccncc1	-0.9	-2.8	-10.6	-2.4
56	C[C@@H]1CCCCO[C@H](CN(C)S(C)(=O)=O)[C@@H](C)CN([C@@H](C)CO)C(=O)c2cc(NC(=O)C3CCCCC3)ccc2O1	-0.3	-1.0	0.5	-2.5
57	CC(=O)Nc1ccc2c(c1)C(=O)N(C)[C@H]1CC[C@@H](CC(=O)NCc3ccccc3Cl)O[C@H]1CO2	0.0	0.9	-1.0	-0.9
58	C[C@H]1CCCCO[C@@H](CN(C)Cc2ccc(C(=O)O)cc2)[C@@H](C)CN([C@@H](C)CO)C(=O)c2cc(NC(=O)CCCN(C)C)ccc2O1	0.1	4.5	4.6	2.7
59	FC(F)(F)c1ccccc1Cc1c(C2CCCCC2)nc2c3ccccc3ccn12	2.6	4.8	22.5	5.9
60	CC(C)NC(=O)N1CCCCN2[C@@H](CO)[C@H](c3ccc(Br)cc3)[C@@H]2C1	-2.5	0.3	15.1	-0.4
61	COc1ccc(S(=O)(=O)N(C)C[C@@H]2OCCCC[C@@H](C)Oc3ccc(NS(=O)(=O)c4ccccc4)cc3C(=O)N([C@@H](C)CO)C[C@H]2C)cc1	0.4	1.9	-7.5	0.2
62	C[C@H]1CN([C@@H](C)CO)C(=O)Cc2cc(NC(=O)Cc3ccccc3)ccc2O[C@@H]1CN(C)C(=O)Nc1ccccc1	-0.2	0.0	7.9	-0.4
63	CC(C)CC#Cc1ccc2c(c1)O[C@H](CN(C)C(=O)CN(C)C)[C@H](C)CN([C@@H](C)CO)S2(=O)=O	6.3	3.2	3.5	-0.5
64	COCCNC(=O)C1(C)CCCN(C(=O)c2cc(OC)c(OC)c(OC)c2)C1 (configuration not stated)	-0.1	11.2	16.6	-1.5
65	C[C@@H]1CN([C@H](C)CO)S(=O)(=O)c2ccc(-c3ccncc3)cc2O[C@@H]1CN(C)C(=O)CN(C)C	-1.6	1.5	-2.9	-2.2
66	Cc1ccc(-c2ccc3c(c2)O[C@@H](CN(C)S(C)(=O)=O)[C@H](C)CN([C@H](C)CO)S3(=O)=O)cc1	0.1	-3.2	-20.5	6.1
67	CO[C@@H]1CN(C)C(=O)c2cc(NC(=O)Nc3ccccc3Cl)ccc2OC[C@@H](C)N(Cc2ccccc2C(=O)O)C[C@H]1C	-0.4	1.3	-0.8	-0.2
